# Sfp inh: blocks B. subtilis Sfp PPTase activity; Q9F4F7; Biochemical Sfp PPTase activity, qHTS; Potency, µM, for inactives: max response, negative = inhibition, usual class: inhibitors; hit rate 3.5% among 310,000; active means well fitted inhibition curve with a large enough effect; inconclusive means small, poorly fitted or top-dose-only effect, or another doubt; inactive means no such curve, though single readings can be large or run the other way;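 further: the enzyme is Sfp with the accession as filed and its product quenches rhodamine fluorescence; potency means the concentration at half of the fitted maximal effect; 0% = enzyme reaction without inhibitor and -100% = no enzyme wells; top concentration of the series not given in the record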
#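 After 15 min at room temperature with compound, 15 nM Sfp received 5 uM rhodamine-CoA plus 12.5 uM BHQ-2-ybbR (50 mM Hepes pH 7.6, 10 mM MgCl2). Rate came from the fluorescence difference over 30 min, ex 525/em 598 nm.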
# TRPV1 potentiator: potentiators of human vanilloid receptor 1 (TRPV1) | potentiation, % at 8.33 µM | Q8NER1 | hit rate 0.02% among 320,000 | TRPV1-expressing cells, Fluo-8 calcium influx, capsaicin EC20 potentiation; host cell line not named in the record; control for the full effect not named in the record; active means potentiation above 80%; inconclusive means 30% to 80%; inactive means below 30%; further: 0% is about no effect
#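 Cells expressing TRPV1 were dye-loaded with Fluo-8 and read kinetically: 10 s baseline, 3 min after compound (agonist portion), then 2 min after EC20 capsaicin (allosteric enhancer portion). Calcium-bound dye fluorescence at 480/520 nm.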
# Six1-Eya2 blk: blocks human Six1 binding to Eya2. Q15475+O00167. AlphaScreen GST-Six1/His-Eya2 binding, biochemical; hits give low values; control for the full effect not named in the record. activity change, % (no concentration beside the values). hit rate 0.56% among 360,000. AID 651725; in the data active = activity change below about -65%; inconclusive = about -30% to -65%; inactive = above about -30%; further: on the % scale 0 is the no-effect control and ±100 the full control effect; compound concentration not given in the record
# Target sequence (O00167 whole entry, looked up): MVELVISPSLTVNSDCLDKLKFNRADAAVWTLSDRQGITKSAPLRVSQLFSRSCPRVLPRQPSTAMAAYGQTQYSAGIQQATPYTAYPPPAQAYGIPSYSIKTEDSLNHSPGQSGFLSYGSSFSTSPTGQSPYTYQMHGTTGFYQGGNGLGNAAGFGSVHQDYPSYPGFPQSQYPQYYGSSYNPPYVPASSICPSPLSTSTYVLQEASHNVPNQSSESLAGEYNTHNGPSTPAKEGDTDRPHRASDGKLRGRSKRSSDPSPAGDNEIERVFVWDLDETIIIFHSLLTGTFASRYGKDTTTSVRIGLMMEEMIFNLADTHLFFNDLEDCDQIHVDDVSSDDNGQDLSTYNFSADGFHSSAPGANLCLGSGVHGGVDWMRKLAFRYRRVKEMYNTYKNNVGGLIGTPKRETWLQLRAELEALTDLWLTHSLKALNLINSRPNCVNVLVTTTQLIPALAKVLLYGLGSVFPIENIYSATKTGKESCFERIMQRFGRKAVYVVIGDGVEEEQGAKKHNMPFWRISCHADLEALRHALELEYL
# Target sequence (Q15475 whole entry, looked up): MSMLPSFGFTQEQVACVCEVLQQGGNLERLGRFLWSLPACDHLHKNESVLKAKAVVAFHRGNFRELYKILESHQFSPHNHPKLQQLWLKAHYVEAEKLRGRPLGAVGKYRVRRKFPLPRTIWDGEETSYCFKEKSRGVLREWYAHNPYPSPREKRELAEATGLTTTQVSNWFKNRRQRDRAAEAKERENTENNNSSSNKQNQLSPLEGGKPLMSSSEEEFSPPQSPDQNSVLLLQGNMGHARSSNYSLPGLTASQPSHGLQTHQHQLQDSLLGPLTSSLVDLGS
#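 Six1/Eya2 binding was read as AlphaScreen signal after compounds were pinned into GST-Six1 plus His-tagged Eya2 (5X stock 250/500 nM) in pH 8.0 Tris/NaCl/TCEP buffer, beads added, then incubated 1 h, 37 C, dark.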
# D2 ag: activates the human D2 dopamine receptor | hit rate 0.084% among 360,000 | DiscoveRx PathHunter D2 beta-arrestin, luminescence, 90 min; 100% = 57 uM dopamine signal | P14416 | activation, % (no concentration beside the values) | AID 624465; in the data active = activation above about 40%; inconclusive = about 15% to 40%; inactive = below about 15%; further: compound concentration not given in the record; the text of the record calls up to 30% inactive
#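 Agonist mode: compounds alone added to overnight-plated D2 PathHunter cells for 90 min at 37 C, with 57 uM final dopamine (EC100) defining full response. Beta-arrestin recruitment detected by chemiluminescent reagent, read after 1 h at ambient temperature.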
# CtBP-E1A blk: inhibitors of CtBP/E1A interaction; activity change, % (concentration not given with the values); AlphaScreen GST-E1A/His-CtBP binding, 1536-well; hits give low values; control for the full effect not named in the record; hit rate 0.49% among 340,000; in the data active means activity change below about -65%; inconclusive means about -30% to -65%; inactive means above about -30%; further: on the % scale 0 is the no-effect control and ±100 the full control effect
#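 In 5 uL wells, 23 nL compound meets equimolar GST-E1A and His-CtBP (5X stock 125 nM each) for 2 h, 37 °C. Beads (5X, 50 ug/mL) then 1 h, 37 °C, dark.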
# PINK1 expr mod: PINK1 expression modulation | PINK1 immunofluorescence, high-content cytometry, 24 h | Potency, µM (highest dose often 76.6 µM), without a hit: at the highest dose activation (PINK1 increase), actives largely listed as activators | hit rate 0.2% among 410,000; active = well fitted activation curve with a large enough effect; inconclusive = small, poorly fitted or top-dose-only effect; inactive = flat fitted curve, though single readings scatter; cell line not stated here;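 further: potency means the concentration at half of the fitted maximal effect; % of control where 0% means no effect; nearly all actives have a fitted effect of over 65% in size; a mitochondrial uncoupler was the plate control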
#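 Stable cell line, 250 cells/well, 12 h attachment; compounds pinned at 5 concentrations, 24 h; CCCP control. Fixed with nuclear dye, primary antibodies 12 h at 10 degrees C, secondary plus cell stain; laser-scanning cytometer read.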
# D2 potentiator: human D2 receptor positive allosteric modulation; P14416; DiscoveRx D2 beta-arrestin cells, luminescence, 90 min; 100% = 57 uM dopamine signal; potentiation, % (test concentration not listed); hit rate 0.23% among 360,000; AID 624464; active = potentiation of 50% or more; inconclusive = 30% to 50%; inactive = 30% or less;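 further: compound concentration not given in the record; tested on top of an EC20 dose of dopamine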
#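 PathHunter D2 cells, attached overnight at 37 deg C, received compound in DMSO plus dopamine at EC20 (50 nM final) for 90 min at 37 deg C. Beta-arrestin recruitment was read as luminescence after 1 h with detection reagent at ambient temperature.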
# The depositor's hits bear a star; ? = inconclusive; · = no result given; & = joins results of further samples; [ ] = another dose, or the depositor's remark. An unsorted share of the library (roughly 3.7% active in at least one column).
canonical_smiles	Sfp inh	TRPV1 potentiator	Six1-Eya2 blk	D2 ag	CtBP-E1A blk	PINK1 expr mod	D2 potentiator
CS(=O)(=O)N1CC2CCCN2c2ccc(C(F)(F)F)cc21 (centres undefined)	16%	-6	7	4.4	·	-0.9%	-2
Cn1nc(C(=O)Nc2cccc(Cl)c2)cc1C(=O)Nc1cccc(Cl)c1	1%	-3	2	8.8	4	0.4%	0
O=C(NCC1CCCO1)c1cc(C(=O)C2CC2)c[nH]1 (centres undefined)	13%	·	-1	-1.7	1	0.4%	-5
Cc1noc(C)c1COc1ccc(C(=O)N2CCN(S(=O)(=O)c3cccc(F)c3)CC2)cc1	·	·	-9	2.6	-6	-1.6%	4
COc1cc(SC)ccc1C(=O)OC1CCOC1=O (centres undefined)	15%	0	-1	-0.9	0	0.8%	-3
O=C(COC(=O)C1CCCCC1)Nc1ccc(N2CCCCC2)cc1	-4%	0	?	-0.4	?	2.2%	16
Cc1oc(-c2ccccc2Cl)nc1CS(=O)CC(=O)NC1CC1 (centres undefined)	10%	3	0	-6.1	·	0.2%	-7
COc1ccc(OCCn2ccnc2C)cc1	?	-1	5	1.7	0	0.0%	10
Cc1ccc2nc(-c3ccc(Cl)cc3)c(CC3CCCCC3)n2c1	·	·	-4	-7.6	-6	3.2%	-14
O=C(Nc1ccnn1C1CCN(Cc2ccc(CO)o2)CC1)c1ccc2c(c1)OCO2	14%	-4	-2	-6.2	4	2.0%	-13

# 3 structures already listed, sorted by length of the SMILES, largest number first:
canonical_smiles	Sfp inh	TRPV1 potentiator	Six1-Eya2 blk	D2 ag	CtBP-E1A blk	PINK1 expr mod	D2 potentiator
Cn1nc(C(=O)Nc2cccc(Cl)c2)cc1C(=O)Nc1cccc(Cl)c1	1%	-3	2	8.8	4	0.4%	0
CS(=O)(=O)N1CC2CCCN2c2ccc(C(F)(F)F)cc21 (centres undefined)	16%	-6	7	4.4	·	-0.9%	-2
COc1cc(SC)ccc1C(=O)OC1CCOC1=O (centres undefined)	15%	0	-1	-0.9	0	0.8%	-3

# Additional results follow.
canonical_smiles	Sfp inh	TRPV1 potentiator	Six1-Eya2 blk	D2 ag	CtBP-E1A blk	PINK1 expr mod	D2 potentiator
COc1ccccc1CN(C(=O)c1ccco1)C(C(=O)NC1CCCC1)c1ccncc1 (centres undefined)	8%	-9	1	-1.5	5	1.4%	9
COc1ccc(OC)c(NC(=O)Nc2cc(NC(=O)Nc3cc(OC)ccc3OC)c(C)nc2C)c1	22%	-8	0	-5.5	-9	3.5%	-8
COc1ccc(C(=O)Nc2ccnn2C2CCN(Cc3cccnc3)CC2)cc1	16%	20	1	-2.3	·	0.5%	-10
O=C(Nc1nc(-c2cccc([N+](=O)[O-])c2)cs1)C(c1ccccc1)c1ccccc1	27%	11	-16	0.0	-22	2.3%	-11
CO/N=C/C(NC(=O)c1ccc(C(F)(F)F)cc1)C(=O)OC (centres undefined)	7%	-22	11	4.4	5	1.3%	4
COc1cccc(COC(=O)C(Cc2ccccc2)NC(=O)c2ccco2)c1 (centres undefined)	·	·	2	-1.1	-1	3.2%	-5
COc1cc(C(=O)N2CCC(c3nc(-c4cccnc4)no3)CC2)cc(OC)c1OC	-9%	0	4	-1.2	4	?	1
O=C1c2ccccc2C(=O)N1Cc1cccnc1	-3%	13	-1	-1.4	-1	2.8%	-7
NS(=O)(=O)c1ccc(C(=O)O)cc1	-4%&-23%	9	3	-3.5	-4	0.3%	-24
Cc1nc2ccc(S(=O)(=O)NCC(=O)NCc3ccc4c(c3)OCO4)cc2s1	5%	-6	14	-2.5	-2	-0.1%	-4
C=CCn1c(CNS(=O)(=O)c2ccc(Br)cc2)nnc1SC	8%	13	-7	-6.7	9	-0.5%	-10
CC(C)CCNC(=O)[C@H](CSCc1ccccc1)N1Cc2ccccc2C1=O	8%	-11	-4	-1.6	-2	7.5%	-12
CCn1ncc(Br)c1C(=O)Nc1cc(C)ccc1F	5%	7	8	-3.1	11	-0.1%	-6
COc1cc(C2/C(=C(/O)c3ccccc3)C(=O)C(=O)N2c2ccccn2)ccc1O (centres undefined)	-3%	-7	-1	-4.3	-3	-0.2%	-9
O=C(CC1C(=O)NCCN1Cc1ccccn1)NCCc1ccccc1F (centres undefined)	-7%	8	?	-6.5	?	1.7%	-16
Cc1cccc(C)c1NC(=O)CN(C)S(=O)(=O)c1ccc(-c2ccc(=O)[nH]n2)s1	1%	-10	-10	-4.0	-12	3.0%	2
CC(=O)Oc1cccc(N2C(=O)C3C4C=CC(C4)C3C2=O)c1 (centres undefined)	23%	1	6	-1.3	-2	-3.4%[38.3 µM]	-5
CCc1nc2ccc(C(=O)NCCNC(C)=O)cn2c1N(CC)CCOC	·	·	2	-2.5	9	2.4%	-5
O=C1c2ccccc2C(=O)c2c1cccc2-n1nnc2ccccc21	3%	9	-13	?	-6	1.4%	-2
CC1NC(=O)c2cccnc2-n2c1nc1cc(F)c(F)cc1c2=O (centres undefined)	·	·	10	-2.6	-2	-0.6%	0
O=C(N=C1c2ccccc2CN1c1ccccc1)c1cccc([N+](=O)[O-])c1	2%	1	-24	0.0	-22	-0.3%	-6
CCn1c(CC(=O)Nc2ccccc2)nnc1SCC(=O)Nc1nncs1	-2%	-12	-6	-5.2	4	1.6%	-7
CCc1nc(NCCN2CCOCC2)c2oc3ccccc3c2n1	-12%	·	-1	-1.4	1	-0.5%	2
Cc1cccc(NC(=O)Cn2c(C)c(C#N)c3ccccc32)c1C	-29%	0	3	3.3	-1	-0.3%	-5
COc1ccc(C)c2sc(=NC(=O)c3cccc(N4C(=O)CCC4=O)c3)n(C)c12	8%	2	7	-2.1	10	7.5%	-6
S=C(Nc1ccc2c(c1)OCO2)Nc1ccc2c(c1)OCO2	-17%	8	-11	-2.4	1	-1.6%	16
Cc1ccc(/C=N\NC(=O)C2CC(=O)N(c3ccccc3)C2)o1 (centres undefined)	3%	-6	-6	-0.4	1	1.1%	-5
Cc1nc(Cl)c2c(n1)NC1=C(O2)C(=O)CCC1	-2%	-1	-11	-4.9	-2	2.4%	-3
COC(=O)C[C@H]1C[C@@H]2c3cc(NC(=O)CN(C)C)ccc3O[C@@H]2[C@H](CO)O1	·	·	-25	-8.3	-12	4.3%	1
Cc1cc(C)n2nc(C(=O)OCC(=O)NCc3ccccc3)nc2n1	·	-2	1	0.0	·	1.9%	8
Cc1ccc(NC(=O)CNc2ccccc2CN(C)C2CCCCC2)cc1	6%	-14	-19	-5.1	-29	15%	-22
O=C(O)c1ccc2c(c1)C(=O)N(CCc1ccccc1)C2=O	16%	8	4	2.2	-2	0.8%	1
O=C(O)c1nn(CC(=O)N2CCN(S(=O)(=O)c3ccc(Cl)cc3)CC2)c(=O)c2ccccc12	6%	-8	-19	-3.0	-10	2.8%	-5
O=C(COc1ccccc1Cl)NCc1ccccc1	3%	-36	14	2.1	2	0.2%	-8
O=C(NCc1cccs1)C1CCCN1C(=O)Nc1ccccc1 (centres undefined)	9%	7	7	0.1	-2	-1.2%	-14
O=C(Cn1cnc2c(nnn2Cc2ccccc2)c1=O)N1CCCc2ccccc21	15%	-8	4	-4.8	4	1.0%	-9
COc1ccc(OC)c(-c2csc(NC(=O)Cc3ccc(F)cc3)n2)c1	21%	-23	-5	5.2	-15	1.8%	-4
O=S(c1ccc2ccccc2c1)c1cnns1 (centres undefined)	7%	4	18	0.0	23	-0.8%	-34
CCCN(CCC)CCCNC(=S)Nc1ccc2nc(N3CCN(CC)CC3)cc(C)c2c1	-5%	3	-2	-0.6	·	0.5%	-13
CC(C)c1nnc(NC(=O)C2CCCN2C(=O)Nc2ccccc2[N+](=O)[O-])s1 (centres undefined)	10%	23	-4	-20	-5	-0.5%	-7
Nc1ncnc2c1ncn2[C@@H]1O[C@H](CNC(=O)[C@@H](N)C2CCCCC2)[C@@H](O)[C@H]1O	·	·	4	-1.9	2	-0.3%	-4
O=C1c2ccccc2C(=O)N1CCCCN(C(=O)c1cc2ccccc2oc1=O)c1ccc(Cl)cc1	-2%	20	8	-2.5	8	-0.4%	7
O=C(O)C1CCCN1S(=O)(=O)c1cccc2nsnc12 (centres undefined)	17%	2	-1	0.4	4	-0.2%	-2
O=C(O)c1ccccc1Nc1ccc([N+](=O)[O-])cc1	17%	0	0	-8.4	7	-0.4%	-13
NC(=O)c1ccsc1NC(=O)COc1ccccc1	1%	2	-26	1.5	?	2.2%[38.3 µM]	-10
COc1cc(-c2nc3ccccn3c2/N=C/c2cc(OC)c(O)cc2Cl)ccc1O	-17%	-8	-13	9.7	-12	-1.7%	3
CC(=O)c1cccc(NC(=O)Cc2coc3cc4c(cc23)CCC4)c1	-11%	-9	5	-0.8	16	2.8%	-22
CC(=O)N1C2CCCCC2S[C@H]2CCCCC21 (some centres undefined)	6%	-9	4	-2.1	-9	-3.3%	-5
CC(C)=CC(=O)OCC(=O)Nc1cc(C)ccc1C	17%	16	6	-5.2	0	1.5%	-12
CC(=O)NC1C2CN3CCN(C2)CC1(Cc1ccccc1)C3 (centres undefined)	-5%	-1	11	0.5	-7	1.0%	1

# Continued:
canonical_smiles	Sfp inh	TRPV1 potentiator	Six1-Eya2 blk	D2 ag	CtBP-E1A blk	PINK1 expr mod	D2 potentiator
N#Cc1c(NC(=O)CSc2nnc(-c3ccncc3)n2CC2CCCO2)sc2c1CCCC2 (centres undefined)	9%	8	-9	-5.9	1	-0.4%	-7
O=C1CCC(C(=O)N2CCCO2)CN1Cc1cccc(C(F)(F)F)c1 (centres undefined)	10%	-7	8	-2.3	-8	0.6%	17
CN(C)S(=O)(=O)c1cccc(NC(=O)COc2cccc3ccccc23)c1	·	11	-9	-5.3	1	9.3%	-17
COc1ccc(CCc2nnc(CCC(=O)NCc3cnc4ccccn34)o2)cc1	19%	11	3	-0.8	9	-0.5%	-1
O=C(c1ccc(S(=O)(=O)NCC2CCCO2)cc1)N1CCN(c2cccc(Cl)c2)CC1 (centres undefined)	8%	2	1	3.2	0	-3.6%	0
Cc1ccc(S(=O)(=O)N2CCCCC2)cc1NC(=O)c1ccc2c(c1)OCO2	7%	-7	3	-2.9	2	-1.3%	-14

# Screening data from PubChem.
